Compound activity deposited in PubChem BioAssay by National Center for Advancing Translational Sciences (NCATS).
StopGo reporter = FMDV 2A StopGo reporter, luciferase signal; human cells with a luciferase reporter of 2A StopGo recoding; control for the full effect not named in the record; Potency, µM (doses to about 57.9 µM), without a hit: at the top dose signal change, negative = less light; 410,000 tested, 1.2% active; AID 1159524; active = well fitted falling curve with a large enough effect; inconclusive = small, poorly fitted or top-dose-only effect; inactive = no such curve, though single readings can be large or run the other way; tested in HEK293T cells; note: % is set by controls: 0 for no effect and ±100 for the full control effect; nearly all actives have a fitted effect of over 45% in size; luciferase light after 4 h
Cruzain Triton = cruzain (T. cruzi) inhibition with detergent | Potency, µM, for inactives: max response, negative = inhibition, hits mostly inhibitors | purified cruzain, Z-FR-AMC fluorescence, 0.01% Triton | 200,000 tested, 0.43% active | AID 1478; active = well fitted curve in the direction sought with a large enough effect; inconclusive = small, poorly fitted or top-dose-only effect, or another doubt; inactive = no such curve, though single readings can be large; an effect the other way counts as inactive or inconclusive;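 note: plate controls were neutral wells for no effect and buffer without enzyme for full effect; nearly all actives have a fitted effect of over 40% in size; top concentration of the series not given in the record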
Target sequence (P25779 123-467 limits assumed): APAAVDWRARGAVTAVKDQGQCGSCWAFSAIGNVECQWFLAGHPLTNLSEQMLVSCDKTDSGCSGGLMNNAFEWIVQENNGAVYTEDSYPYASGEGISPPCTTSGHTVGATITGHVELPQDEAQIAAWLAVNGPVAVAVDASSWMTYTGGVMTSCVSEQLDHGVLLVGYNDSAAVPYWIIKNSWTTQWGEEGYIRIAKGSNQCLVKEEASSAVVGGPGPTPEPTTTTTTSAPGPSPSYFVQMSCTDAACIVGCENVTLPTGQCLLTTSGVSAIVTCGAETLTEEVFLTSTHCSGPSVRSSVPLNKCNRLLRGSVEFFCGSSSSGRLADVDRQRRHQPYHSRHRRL
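Cruzain (1.5 nM) preincubated 15 min at RT with compound in 100 mM sodium acetate pH 5.5, 5 mM DTT, 0.01% Triton X-100. Reaction started with 2 uM Z-FR-AMC; AMC fluorescence (ex 360/em 450 nm) change over 60 s gave rate.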
Lassa entry inh = inhibitors of Lassa virus binding or cell entry; Potency, µM (doses to about 37.9 µM), for the others: at the top dose activity change, negative = inhibition, usual class: inhibitors; AID 540256; 300,000 tested, 1.2% active; Lassa virus pseudotype entry inhibition, cell reporter; control for the full effect not named in the record; active means well fitted inhibition curve with a large enough effect; inconclusive means small, poorly fitted or top-dose-only effect, or effect the other way; inactive means flat fitted curve, though single readings scatter; tested in HEK293 cells; note: % is set by controls: 0 for no effect and ±100 for the full control effect; nearly all actives have a fitted effect of over 50% in size; luciferase read-out
MARV entry inh = inhibitors of Marburg virus binding or cell entry; 300,000 tested, 1.8% active; Potency, µM (titrated, usually from 37.8 µM), for inactives: at the top dose activity change, negative = inhibition, usual class: inhibitors; Marburg virus pseudotyped entry inhibition, cell reporter; control for the full effect not named in the record; about a third of the inactives were read at about 46 µM; active = well fitted inhibition curve with a large enough effect; inconclusive = small, poorly fitted or top-dose-only effect, or effect the other way; inactive = flat fitted curve, though single readings scatter; tested in HEK293 cells; about a fifth of its hits are not listed in these tables; note: % is set by controls: 0 for no effect and ±100 for the full control effect; luciferase read-out
RE007 growth inh = less growth of the S. pombe RE007 Vpr strain | S. pombe RE007 Vpr strain, BacTiter-Glo ATP luminescence, 24 h; control for the full effect not named in the record | Potency, µM (top dose mostly 92.2 µM), without a hit: at the highest dose activity change, negative = less growth | 360,000 tested, 0.21% active | AID 651644; active = well fitted falling curve with a large enough effect; inconclusive = small, poorly fitted or top-dose-only effect; inactive = no such curve, though single readings can be large or run the other way;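 note: % is set by controls: 0 for no effect and ±100 for the full control effect; nearly all actives have a fitted effect of over 50% in size; the assay follows cell death caused by Vpr and the record does not say whether a fall means rescue or toxicity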
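Fission yeast RE007 carrying one integrated HIV-1 vpr copy, seeded at OD 0.01 in PMG+AL medium with 23 nL pinned compound. Grown 24 h at 30 degrees; viability read by BacTiter-Glo luminescence after 5 min.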
Cruzain noTriton = blocks cruzain activity in detergent-free assay; purified cruzain, Z-FR-AMC fluorescence, no detergent; Potency, µM, for the others: max response, negative = inhibition, actives largely listed as inhibitors; 200,000 tested, 2.3% active; active = well fitted curve in the direction sought with a large enough effect; inconclusive = small, poorly fitted or top-dose-only effect, or another doubt; inactive = no such curve, though single readings can be large; an effect the other way counts as inactive or inconclusive;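 note: plate controls were enzyme without inhibitor for no effect and buffer without enzyme for full effect; nearly all actives have a fitted effect of over 40% in size; top concentration of the series not given in the record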
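Detergent-free condition (0.00005% Triton X-100) in acetate buffer pH 5.5 with DTT. 1.5 nM enzyme and compound were pre-mixed 15 min, then 2 uM Z-FR-AMC substrate added; reaction progress from fluorescence change between first and third reads (60 s).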
NS1 function inh = influenza NS1 inhibition; S. cerevisiae slowed by influenza A NS1, growth recovery by OD600; Potency, µM (top dose mostly 46.1 µM), inactives show at the highest dose activity, positive = more growth; 270,000 tested, 0.4% active; AID 2326; note: actives are rising curves; nearly all actives have a fitted effect of over 50% in size
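Recovery from NS1-induced slow growth read by OD600 in budding yeast switched to galactose assay medium (pH 6.0, -URA) at 1:100 dilution. Compound 23 nl per well; the matching strain lacking NS1 serves as control.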
SARS PLP yeast = SARS-CoV PLP inhibition in yeast; S. cerevisiae expressing SARS-CoV PLpro, growth rescue; control for the full effect not named in the record; Potency, µM (top dose mostly 32.9 µM), for the others: at the top dose activity, positive = growth rescue; 330,000 tested, 0.19% active; note: 0% is about no effect; nearly all actives have a fitted effect of over 55% in size; growth read by luminescence after 48 h
Starred values were filed as active, the others as inactive; ? = inconclusive; nt = no result given; & = joins results of further samples; [ ] = dose if it differs, or a comment. Unless noted, calls come from the whole dose curve; as a rule, active means well fitted rising curve with a large enough effect; inconclusive means small, poorly fitted or top-dose-only effect; inactive means no such curve, though single readings can be large or run the other way. Potency is the fitted concentration of half-maximal effect.

Molecule,Cruzain noTriton,RE007 growth inh,Cruzain Triton,SARS PLP yeast,MARV entry inh,NS1 function inh,StopGo reporter,Lassa entry inh
COc1ccc(CCNC(=S)N2CCN(S(=O)(=O)c3ccc(C)cc3)CC2)cc1,nt,-20%,nt,-1%,-14%,nt,7%,2%
O=C(NNC(=S)NCCc1ccccc1)c1ccc(Br)s1,nt,0%,nt,0%,-24%[46.1 µM],2%,6%,11%[46.1 µM]
O=C(c1ccccc1Cl)N(Cc1ccco1)Cc1ccco1,-2%,nt,-1.0%,nt,?,nt,-14%,15%[46.1 µM]
CCOC(=O)c1c(-c2ccc(OC)cc2)csc1NC(=O)CSc1ccccc1,-22%,5%,-2.0%,-6%,-26%,15%,-22%,?
Cc1cccc(N2CCN(C(=O)c3ccc(Nc4nc5ccccc5n5nnnc45)cc3)CC2)c1C,-8%,nt,-0.7%,nt,6%[46.1 µM],nt,27%,17%[46.1 µM]
COc1cc(C(=O)OC2C[C@H]3CC[C@@H](C2)N3C)ccc1O (stereo partly drawn),-13%,14%,-3.2%,0%,18%&18%[46.1 µM],-1%,3%,-5%[46.1 µM]
CCC(CO)Nc1ccc([N+](=O)[O-])c2cccnc12 (stereo not drawn),-3%,0%,-11%,4%,-16%,-3%,-12%,2%
CC(Sc1nc2ccccc2c(=O)n1CC1CCCO1)C(=O)Nc1ccc(S(N)(=O)=O)cc1 (stereo not drawn),nt,8%,nt,nt,10%,nt,-13%,3%
CCCCN(CCCC)CCn1cnc2c([nH]c3ccc(OC)cc32)c1=O,1%&0%,-3%,-0.9%&-1.8%,-8%,-2%&-2%[46.1 µM],-16%,0%&-22%,2%[46.1 µM]
NC(=O)Cn1c(=O)n(CCCCCC(=O)NCc2ccccc2Cl)c(=O)c2sccc21,2%,nt,-4.2%,nt,16%[46.1 µM],nt,-2%,-12%[46.1 µM]
CCN(CC)S(=O)(=O)c1cc(NC(=O)[C@@H](NC(N)=O)C(C)C)ccc1C,nt,-2%,nt,3%,7%[46.1 µM],nt,0%,-17%
CCOC(=O)c1cnc(SCC(=O)Nc2ccccc2C(=O)OC)nc1N,2%,4%,-8.8%,-10%,-15%,1%,?,-23%
Cc1ccc(NC(=O)C2CCN(c3nnc(-n4cccc4)s3)CC2)cc1Cl,-5%,nt,-2.2%,nt,nt,nt,-16%,23%[46.1 µM]
CC(=O)c1cc(-c2ccc(F)cc2)n(CC(=O)Nc2cc(C)cc(C)c2)c1C,-14%,nt,1.0%,nt,nt,nt,10%,-3%[46.1 µM]
COc1ccccc1N1CCN(C(=O)CCCCCn2c(=O)[nH]c3ccsc3c2=O)CC1,nt,2%,nt,-2%,?,nt,-12%,?
CCN1CCc2c(sc(NC(=O)c3ccc(S(=O)(=O)N4CCCCCC4)cc3)c2C(=O)NC)C1,nt,8%,nt,-5%,?,8%,23%,9%
CCOc1ccccc1NC(=O)CN(c1cc(C)cc(C)c1)S(=O)(=O)c1c(C)nn(C)c1C,?,nt,-9.2%,nt,nt,nt,0%,-17%[46.1 µM]
CN(C)/C=C(\C#N)C(=O)N/N=C/c1ccc(F)cc1,nt,3%,nt,-1%,17%[46.1 µM],nt,29%,16%
O=C(Nc1cccc(Cl)c1N1CCCCC1)c1ccc(N2CCOCC2)c([N+](=O)[O-])c1,-2%,5%,-7.1%,-32%,1%,9%,-19%,0%
O=C1CCCCC1Nc1ccc(Br)cc1 (stereo not drawn),nt,-3%,nt,nt,?,nt,-2%,13%
CCCC(=O)N/C(N)=N/c1nc(C)c2cc(C)ccc2n1,nt,-10%,nt,-1%,-18%[46.1 µM],-3%,15%,?
CN(NC(=O)NN(C)C(=O)c1ccccc1)C(=O)c1ccccc1,nt,-2%,nt,nt,?,nt,-7%,-3%
CCN(CC)S(=O)(=O)c1ccc2c(c1)nc(CN(C)C(=O)Nc1ccc(C)c(Cl)c1)n2C,-5%,nt,5.5%,nt,nt,nt,5%,10%[46.1 µM]
Cc1cc(C)c(C(N)=O)c(SCC(=O)c2ccc(Cl)cc2)n1,-1%,15%,2.5%,0%,nt,3%,12%,nt
CC(=O)N/N=C(\C)CC(=O)NC(C)(C)C,nt,1%,nt,-2%,25%[46.1 µM],nt,-14%,4%
Nc1ccc(C23CC4CC(CC(C4)C2)C3)cc1,nt,40%,nt,-6%,27%&27%,nt,-8%,-5%
Cc1cc(C)c(-c2n[nH]c3c2C(c2ccccc2F)N(CCO)C3=O)c(O)c1 (stereo not drawn),-15%,nt,-2.2%,nt,?,nt,-20%,-14%[46.1 µM]
CCCCOc1ccc(CNC(=O)Cc2ccc(NC(=O)N3CCCCc4ccccc43)cc2)cc1,11%,nt,-5.9%,nt,nt,nt,?,?
Cc1c[n+](CC(=O)c2ccccc2)cs1,nt,-3%,nt,-5%,22%,10%,1%,-8%
COc1ccc(/C=C2\SC(=S)N(c3cccnc3)C2=O)cc1,nt,1%,nt,-2%,nt,-1%,-13%,nt
O=C(CCCC(=O)NCCc1ccccc1)NCCc1ccccc1,0%,8%,-1.0%,9%,?,-18%,-9%,6%
COc1ccc(N2CC(NC(=O)c3ccc(S(=O)(=O)N4CCOCC4)cc3)CC2=O)cc1OC (stereo not drawn),-1%,nt,1.2%,nt,nt,nt,-11%,7%[46.1 µM]
COc1ccccc1CNCc1cc(Br)ccc1OC,nt,-10%,nt,2%,?,nt,1%,?
COc1ccccc1-c1coc2c(CN(C)C)c(O)ccc2c1=O,nt,-4%,nt,-3%,nt,16%,1%,nt
CC(=O)OC(C(=O)Nc1ccccc1)C(C)S(=O)(=O)c1ccccc1 (stereo not drawn),-7%,6%,0.8%,?,-25%[46.1 µM],-10%,30%,?
CCc1ccc(C2C(C(=O)Nc3ccccc3OC)=C(C)Nc3nc(SCc4ccccc4)nn32)cc1 (stereo not drawn),-6%,nt,-1.5%,nt,-4%[46.1 µM],nt,-7%,-14%[46.1 µM]
CC(=O)c1ccc(NC(=O)C2CCC(CNS(=O)(=O)c3ccc4c(c3)CCCC(=O)N4)CC2)cc1 (stereo not drawn),14%,nt,-0.8%,nt,nt,nt,-16%,-9%[46.1 µM]
CCCCN(C(=O)c1cc(S(=O)(=O)N2CCOCC2)ccc1Cl)c1c(N)n(CC(C)C)c(=O)[nH]c1=O,nt,-18%,nt,-5%,3%,nt,-2%,9%[46.1 µM]
COc1ccc(/C=N/NC(=S)Nc2ccccc2[N+](=O)[O-])cc1O,-9%,-26%,-7.6%,?,?,-17%,-2%,23µM*
COc1cc(NS(=O)(=O)c2ccc(N/C=C(\C#N)c3nc4ccccc4o3)cc2)nc(OC)n1,?,7%,-7.3%,-4%,0%,13%,-2%,19%
CN1CCN(C(=O)/C=C/c2ccc(Cl)cc2)CC1,nt,2%,nt,4%,?,nt,31%[activator],12%
CN(C(=O)c1ccccc1)c1nc2ccccc2s1,0%,?,-6.5%,-2%,8.9µM*,-67%,-59%,?
C=CCC(NCc1ccccc1)c1ccc(OC)cc1 (stereo not drawn),nt,-10%,nt,2%,4%[46.1 µM],1%,-16%,24%[46.1 µM]
Cc1cc(C(=O)CSc2nnnn2C)c(C)n1CCc1ccc(Cl)cc1,-24%,-2%,3.0%,-1%,-3%[46.1 µM],2%,-20%,-14%
Oc1[nH]c2ccccc2c1N=Nc1nncc2ccccc12,nt,-14%,nt,-3%,nt,-32%,9%,nt

One compound at a time (already shown). Order of values: Cruzain noTriton | RE007 growth inh | Cruzain Triton | SARS PLP yeast | MARV entry inh | NS1 function inh | StopGo reporter | Lassa entry inh
Profile of CN(C(=O)c1ccccc1)c1nc2ccccc2s1 = 0% | ? | -6.5% | -2% | 8.9µM* | -67% | -59% | ?
Profile of Cc1cc(C(=O)CSc2nnnn2C)c(C)n1CCc1ccc(Cl)cc1 = -24% | -2% | 3.0% | -1% | -3%[46.1 µM] | 2% | -20% | -14%

The results go on:
Molecule,Cruzain noTriton,RE007 growth inh,Cruzain Triton,SARS PLP yeast,MARV entry inh,NS1 function inh,StopGo reporter,Lassa entry inh
Cc1n[nH]c(C)c1S(=O)(=O)N1CCCC(C(=O)NCc2ccccc2Cl)C1 (stereo not drawn),7%,-18%,-2.4%,21%,1%,-2%,-13%,-7%
CCOc1ccc(C(=O)Nc2ccc(NC(=S)NC(=O)CC)cc2)cc1Cl,?,14%,1.0%,2%,14%,7%,-5%,2%
Nc1nonc1-c1nc2ccccc2n1CC(=O)NC1CCCC1,?,6%,-0.7%,-5%,-28%,-6%,-5%,5%
Cc1cc(C(=O)NNC(=O)/C=C/c2ccc(F)cc2)c(C)o1,nt,-4%,nt,16%,-15%[46.1 µM],6%,-8%,-4%[46.1 µM]
CCOC(=O)c1sc(NC(=S)NC(=O)c2ccccc2)c(C(=O)OCC)c1C,9%,10%,0.3%,-7%,-19%,-16%,-17%,-6%
COc1ccc(NC2CCCN(C(=O)c3cc(C)nc4cc(F)ccc34)C2)cc1 (stereo not drawn),nt,11%,nt,1%,nt,-5%,-8%,nt
Cc1ccc(C2NS(=O)(=O)N=C2N)cc1 (stereo not drawn),-21%,19%,5.2%,3%,-9%,5%,9%,-5%
O=C(Nc1cc(S(=O)(=O)N2CCCCC2)ccc1Oc1ccccc1)C1=COCCO1,nt,7%,nt,1%,nt,13%,-12%,nt
O=C(Nc1ccccc1)N1CCN(Cc2ccccc2)CC1,3%,5%,1.6%,2%,10%,-2%,49%[activator],2%
O=C1N[C@@H](Cc2ccccc2)C(=O)N2CCCC12 (stereo partly drawn),-1%,-12%,-0.1%,-13%,nt,nt,-11%,nt
O=C1NC(=O)C(=Cc2ccccc2)N1,nt,-5%,nt,nt,?,nt,7%,6%[46.1 µM]
